Screens (PubChem BioAssay)
Six1-Eya2 blk – blocks human Six1 binding to Eya2; actives 0.56% (n = 360,000); AlphaScreen GST-Six1/His-Eya2 binding, biochemical; active compounds read low; control for the full effect not named in the record; activity change, % (no concentration beside the values); Q15475+O00167; AID 651725; in the data active = activity change below about -65%; inconclusive = about -30% to -65%; inactive = above about -30%; further: on the % scale 0 is the no-effect control and ±100 the full control effect
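Six1/Eya2 binding was read as AlphaScreen signal after compounds were pinned into GST-Six1 plus His-tagged Eya2 (5X stock 250/500 nM) in pH 8.0 Tris/NaCl/TCEP buffer, beads added, then incubated 1 h, 37 C, dark.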
CtBP-E1A inh – CtBP/E1A binding inhibition; AlphaScreen GST-E1A/His-CtBP binding, 1536-well; active compounds read low; control for the full effect not named in the record; actives 0.49% (n = 340,000); activity change, % (test concentration not listed); AID 651724; in the data active means activity change below about -65%; inconclusive means about -30% to -65%; inactive means above about -30%; further: on the % scale 0 is the no-effect control and ±100 the full control effect
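Steps: dispense buffer (Tris pH 8.0, NaCl 300 mM, TCEP 1 mM, BSA, Tween 20); add 5X protein mix (GST-E1A, His-CtBP, 125 nM each); pin 23 nL compound; 2 h at 37 °C, dark; add 5X beads (50 ug/mL); 1 h; read.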
PINK1 modulator – PINK1 expression modulation; actives 0.2% (n = 410,000); AID 624263; PINK1 immunofluorescence, high-content cytometry, 24 h; Potency, µM (highest dose often 76.6 µM), without a hit: top-dose activation (PINK1 increase), usual class: activators; active = well fitted activation curve with a large enough effect; inconclusive = small, poorly fitted or top-dose-only effect; inactive = flat fitted curve, though single readings scatter; cell line not stated here;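 further: potency means the concentration at half of the fitted maximal effect; % of control where 0% means no effect; nearly all actives have a fitted effect of over 65% in size; a mitochondrial uncoupler was the plate control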
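Stable cell line, 250 cells/well, 12 h attachment; compounds pinned at 5 concentrations, 24 h; CCCP control. Fixed with nuclear dye, primary antibodies 12 h at 10 degrees C, secondary plus cell stain; laser-scanning cytometer read.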
TRPML1 ag – human mucolipin-1 channel agonism; actives 0.12% (n = 410,000); Q9GZU1; activation, % (no concentration beside the values); TRPML1-expressing cells, Ca2+ dye fluorescence, FDSS; host cell line not named in the record; reference of the full effect not given here; in the data active = activation above about 50%; inconclusive = about 30% to 50%; inactive = below about 30%; further: 0% is about no effect; the text of the record puts the active cut at 80%
Target sequence (Q9GZU1 whole entry, looked up): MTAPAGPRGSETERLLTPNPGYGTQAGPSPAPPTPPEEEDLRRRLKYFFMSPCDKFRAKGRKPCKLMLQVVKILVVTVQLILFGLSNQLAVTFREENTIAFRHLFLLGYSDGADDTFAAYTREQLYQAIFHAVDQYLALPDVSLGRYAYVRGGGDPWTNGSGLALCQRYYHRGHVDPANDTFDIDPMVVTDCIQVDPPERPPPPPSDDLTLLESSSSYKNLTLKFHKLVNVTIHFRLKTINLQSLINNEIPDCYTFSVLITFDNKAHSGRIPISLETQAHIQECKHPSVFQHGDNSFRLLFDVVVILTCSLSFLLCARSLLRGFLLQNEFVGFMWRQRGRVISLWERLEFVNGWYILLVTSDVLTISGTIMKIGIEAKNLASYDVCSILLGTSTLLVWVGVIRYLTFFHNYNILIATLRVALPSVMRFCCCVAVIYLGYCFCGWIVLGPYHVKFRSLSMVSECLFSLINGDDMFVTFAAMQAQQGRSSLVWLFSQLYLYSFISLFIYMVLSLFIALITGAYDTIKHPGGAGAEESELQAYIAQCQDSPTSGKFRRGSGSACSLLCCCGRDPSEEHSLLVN
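Calcium fluorescence on an FDSS kinetic reader gave the read-out. Tet-induced TRPML1-DL cells were plated overnight, dye-loaded (Ca8 with quencher, 45-90 min, room temperature, dark), then read 110 s after compound addition, and again 110 s after 4uM final 54-4 (EC80).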
TRPML1 blocker – blocks the human TRPML1 channel; activity change, negative = inhibition, % (concentration not given with the values); Q9GZU1; actives 0.02% (n = 390,000); TRPML1-inducible cells, Ca2+ dye fluorescence, FDSS; active compounds read low; inhibition of EC80 agonist-evoked calcium signal; in the data active means activity change below about -50%; inconclusive means about -30% to -50%; inactive means above about -30%;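 further: stimulus is agonist 54-4 at its EC80 concentration; on the % scale 0 is the no-effect control and ±100 the full control effect; the text of the record puts the active cut at -80%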
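TRPML1-DL cells, Tet-induced overnight (~16 h, 37 °C) at 1,500 cells/well, were loaded with Ca8 no-wash dye plus quencher for 45-90 min at room temperature. Compounds were pinned during FDSS kinetic reading; agonist 54-4 at EC80 (4 uM final) then added.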
D2 agonist – human D2 receptor agonism in beta-arrestin assay | P14416 | DiscoveRx PathHunter D2 beta-arrestin, luminescence, 90 min; 100% = 57 uM dopamine signal | activation, % (test concentration not listed) | actives 0.084% (n = 360,000) | AID 624465; in the data active = activation above about 40%; inconclusive = about 15% to 40%; inactive = below about 15%; further: compound concentration not given in the record; the text of the record calls up to 30% inactive
Target sequence (P14416 whole entry, looked up): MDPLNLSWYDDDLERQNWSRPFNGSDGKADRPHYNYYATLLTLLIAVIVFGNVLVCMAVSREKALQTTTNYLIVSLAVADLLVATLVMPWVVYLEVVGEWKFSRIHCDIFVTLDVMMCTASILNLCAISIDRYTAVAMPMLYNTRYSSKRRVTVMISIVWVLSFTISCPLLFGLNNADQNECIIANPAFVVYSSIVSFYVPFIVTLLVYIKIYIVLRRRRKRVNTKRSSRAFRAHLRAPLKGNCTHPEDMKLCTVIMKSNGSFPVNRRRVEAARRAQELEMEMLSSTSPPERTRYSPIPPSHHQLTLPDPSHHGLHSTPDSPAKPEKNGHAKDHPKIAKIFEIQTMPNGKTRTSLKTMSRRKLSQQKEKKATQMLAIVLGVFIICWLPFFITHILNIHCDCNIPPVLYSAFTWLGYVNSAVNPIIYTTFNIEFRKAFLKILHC
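Agonist mode: compounds alone added to overnight-plated D2 PathHunter cells for 90 min at 37 C, with 57 uM final dopamine (EC100) defining full response. Beta-arrestin recruitment detected by chemiluminescent reagent, read after 1 h at ambient temperature.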
Active calls of the source: *; ? = inconclusive; . = not tested or not shown; [ ] = remark or other dose.

SMILES,Six1-Eya2 blk,CtBP-E1A inh,PINK1 modulator,TRPML1 ag,TRPML1 blocker,D2 agonist
O=C1C(=O)c2ccccc2C([O-])=C1[n+]1ccccc1,-3.4,2.4,0.3%,0.6,-2.2,-4.6
O=C(Nc1nnc(COc2ccc(F)cc2)s1)Nc1ccccc1F,-0.1,5.0,?,0.0,3.9,2.1
Cc1ccc(CN(C(=O)c2csnn2)C(C(=O)NC2CCCC2)c2ccccn2)cc1 (stereo unspecified),-2.8,9.1,-1.1%,-0.4,5.7,-1.6
COc1ccccc1S(=O)Cc1ccc(C(=O)O)o1 (stereo unspecified),2.8,6.7,-4.0%[38.3 µM],-0.4,-16.0,-1.5
CCOC(=O)c1c(S(=O)(=O)N2CCN(c3ccccc3OC)CC2)c(C)n(C)c1C,.,.,3.1%,-1.0,-5.1,.
CC(CCc1ccccc1)NC(=O)COC(=O)c1ccc(NC(N)=O)cc1 (stereo unspecified),2.3,-1.9,-2.7%,1.2,-7.8,2.3
CC(=O)Nc1cccc2cc(O)ccc12,-0.1,-1.2,1.2%,-0.4,-1.1,-0.8
C=C(C)CN(CC)c1ccc(N2C(=O)CCCC2=O)cc1[N+](=O)[O-],-5.3,2.2,4.5%,-0.5,7.5,-0.1
CC1=CC2=NC(=O)/C(=C\c3ccc(-c4cccc(Cl)c4)o3)C(=N)N2O1,-24.2,-2.0,21.5%,3.8,8.2,-3.5
O=C(Nc1ccc(S(=O)(=O)Nc2ncccn2)cc1)c1ccc(F)c(S(=O)(=O)N2CCOCC2)c1,-1.7,1.0,0.0%,-0.4,5.6,-0.4
CC(=O)c1ccc(NC(=O)c2cc(-c3cccs3)on2)cc1,-6.3,?,1.5%,0.3,3.2,-3.2
N=c1c(C(=O)NCc2ccc3c(c2)OCO3)cc2c(=O)n3ccccc3nc2n1CC1CCCO1 (stereo unspecified),-1.5,2.3,3.2%,0.1,0.2,-5.4
COc1ccc(/C=C(\C#N)c2n[nH]c(Cn3cncn3)n2)cc1,-2.6,-13.5,-0.4%,1.0,21.2,-5.1
COc1ccccc1-n1nnnc1SCc1ccccc1,18.4,20.4,0.7%,1.6,-21.9,5.1
O=CN1CCN(C(=O)Cc2ccc(Cl)cc2)CC1,0.6,1.6,-0.7%,0.5,-2.6,-4.3
O=C(Cn1c2ccccc2c(=O)c2ccccc21)N/N=C/c1ccc(N2CCCC2)c([N+](=O)[O-])c1,0.0,-5.6,0.1%,0.3,3.7,1.3
Cc1ccc(C(=O)Nc2ccc(N3CCOCC3)nc2N2CCOCC2)cc1,16.6,0.0,-1.4%,0.1,-2.7,1.4
COc1ccc(-c2c(C)n([O-])c3c([n+]2=O)CCCCC3)cc1OC,15.5,-13.4,1.0%,0.1,4.2,-0.9
O=C(Oc1ccccc1-c1csnn1)c1cccs1,13.9,4.8,1.1%,2.2,11.8,0.1
COc1cccc(NC(=O)CSc2nc(=O)n(CCN(C)C)c3c2CCCC3)c1,-4.6,-22.9,-1.1%,-0.9,-1.3,-2.6
O=C(N/N=C/C(Br)=C/c1ccccc1)NC1CCCCC1,-6.9,-0.5,0.7%,-0.5,-2.7,2.1
COc1ccc(Nc2c3c(c(C#N)c4nc5ccccc5n24)CCC3)cc1,0.0,11.4,5.1%,1.0,3.0,8.1
COc1ccccc1/C=C/C=N/N1CCN(Cc2ccccc2)CC1,4.2,-15.6,-1.2%,0.3,44.0,-3.1
CCOc1ccc(S(=O)(=O)Nc2ccc(C(=O)N3CCC3)cc2)cc1,-0.6,-3.0,0.4%,0.4,16.1,-3.0
CC(C)Oc1ccc(C(CC(=O)O)NC(=O)Cc2ccccc2)cc1 (stereo unspecified),13.7,6.1,-0.5%,.,.,-5.8
CCc1nc2c(OCCc3cccc(OC)c3)cccn2c1N(C)C(=O)c1ccc(C)cc1,-7.7,-7.6,1.8%,-0.4,.,-2.9
CC(C)Cn1c(=O)c2ccccc2n2c(CCC(=O)Nc3cccc(Cl)c3)nnc12,.,.,0.2%,-0.2,21.2,.
CCC(Oc1ccccc1)C(=O)Nc1cccc(OCc2cc(=O)n3cccc(C)c3n2)c1 (stereo unspecified),.,.,0.8%,1.2,11.4,.
N#Cc1c(SCc2ccccc2)sc(C(=O)c2ccccc2)c1N,11.9,4.6,9.7%,0.7,33.2,-2.2
Cc1c(NC(=O)NC2CCCCC2)cccc1[N+](=O)[O-],4.3,.,3.3%,-0.4,-1.9,-3.5
O=C(NNC(=O)c1cccs1)c1ccc(F)cc1,8.7,2.2,0.9%,-0.2,-9.4,0.8
NC(=O)C1CCN(c2oc(-c3cccs3)nc2S(=O)(=O)c2ccc(Cl)cc2)CC1,-8.7,5.3,6.2%,0.8,11.8,-3.3
O=[N+]([O-])c1ccc2c(c1)c1ccccc1n2CCO,18.5,32.0,-0.2%,1.5,-0.6,2.6
O=C(CN1CCCCC1)Nc1ccc(Br)cc1[N+](=O)[O-],?,?,-0.6%,1.1,4.4,-1.8
C[C@H](NCCc1ccc(O)cc1)[C@H](O)c1ccc(O)cc1,6.6,2.0,0.0%,1.4,-5.2,-1.7
COC(=O)c1ccc(OC(=O)CCN2C(=O)C3C4c5ccccc5C(c5ccccc54)C3C2=O)cc1 (stereo unspecified),-1.9,0.2,4.8%,0.2,2.5,-0.3
O=C(NCCSc1ccc(Cl)cc1)c1ccco1,-3.1,-0.8,0.9%,0.3,-6.0,-1.6
CC(C)Cc1nnc(NC(=O)c2ccc3c(c2)OCCO3)s1,1.8,-1.8,1.5%,2.3,-14.4,0.7
CCOC(=O)c1c(C)n(-c2ccccc2)c2ccc(OC(=O)c3ccccc3Cl)cc12,.,.,1.9%,-0.1,10.7,.
CN1C(=O)C(C)(C)N(C(=O)c2cccc([N+](=O)[O-])c2)c2ccccc21,2.5,-1.1,-0.2%,-0.9,-9.2,9.9
CCOC(=O)C1CCN(C(=O)CCc2c(C)nc3cc(-c4ccccc4)nn3c2C)CC1,3.0,3.4,0.3%,-0.1,-7.3,-2.6
COC(=O)c1ccccc1NC(=O)CSc1nnnn1C,3.9,0.1,-0.2%,-0.9,7.6,-1.3
COc1ccc(C(=O)OCC(=O)N2CCCCCC2)cc1S(=O)(=O)N1CCOCC1,7.2,1.5,0.7%,0.0,2.7,-0.2
CC1CCCN(C(=O)c2ccc3c(=O)n(C4CCCC4)c(=S)[nH]c3c2)C1 (stereo unspecified),-0.1,4.6,5.7%,-0.5,-3.0,0.9
COc1ccccc1NCc1ccc([N+](=O)[O-])s1,1.9,1.6,1.1%,-0.1,-11.6,-0.6
O=c1c2ccccc2cnn1-c1ccc(Cl)nn1,-20.8,?,-0.3%,0.8,0.7,3.3
Cc1oc2c(c(C)cc3oc(=O)c(CC(=O)NCCCO)c(C)c32)c1C,-0.7,.,-1.0%,2.0,-0.3,-7.9
COC(=O)c1ccc(-n2c(/C=C\c3cccc(Br)c3)nc3ccccc3c2=O)cc1,.,.,8.6%,1.3,-12.3,.
Cn1cccc1C(=O)NC(=O)COC(=O)CC12CC3CC(CC(Br)(C3)C1)C2,-13.0,-10.1,-0.3%,-0.6,4.8,-1.1
CCN(CC)CCN(C(=O)c1ccc2c(c1)OCCO2)c1nc2cc(C)cc(C)c2s1,-10.6,-4.0,18.8%,-0.5,14.2,-2.6

Additional structures.
SMILES,Six1-Eya2 blk,CtBP-E1A inh,PINK1 modulator,TRPML1 ag,TRPML1 blocker,D2 agonist
Cc1ccc(Cn2c(C)c(CNCCCc3ccccc3)c(C(=O)O)c2C)cc1,.,.,-1.2%,-0.3,-9.3,.
Cc1cccc2cc(CN(CC3CCCO3)C(=O)c3ccco3)c(=O)[nH]c12 (stereo unspecified),2.5,-1.5,-0.3%,1.5,-5.2,-1.1
COc1ccc(N(CC(=O)NC2CCCCCC2)S(=O)(=O)c2ccccc2)cc1Cl,1.5,-12.3,7.5%,2.1,5.4,2.5
Cc1ccc(NC(=O)COC(=O)CN2CSCC2=O)cc1C,2.1,-3.9,-2.0%,-0.7,-19.9,0.9
O=C(Nc1ccc(Cl)cn1)c1cc2c(s1)-c1ccccc1OC2,12.8,16.9,6.3%,.,.,-4.8
O=C(N/N=C/C(Cl)=C/c1ccccc1)c1cnccn1,?,-92.3*,-1.2%,-1.2,0.1,-6.1
COc1cc2ccccc2cc1C(=O)Nc1nnc(-c2ccncc2)o1,-20.9,-3.1,0.1%,-0.1,21.5,-3.5
Cc1cc(NC(=O)C(C)SCC(=O)N(C)Cc2c(F)cccc2Cl)no1 (stereo unspecified),0.9,8.3,-0.8%,1.6,3.8,-5.8
CCC(CC)C(=O)Nc1ccc(Sc2ccc([N+](=O)[O-])cc2)cc1,-0.7,-1.3,2.7%[38.3 µM],1.9,14.0,1.1
CCOc1ccccc1CNC(=O)Cn1nc(C)c2c(C)n(-c3ccc(C)cc3)nc2c1=O,0.2,.,1.6%,2.3,9.4,2.7
CC1C(c2ccccc2)N(C)C(c2ccccc2)C(C)C1(O)C#Cc1ccccc1 (stereo unspecified),-0.8,-2.7,31.6µM*,1.9,9.1,0.6
CC(=O)Nc1ccc(S(=O)(=O)NCCC(=O)OCC(=O)c2ccc(F)c(F)c2)cc1,21.7,-2.8,-1.7%,-0.1,-24.8,-6.1
CC(C)NC(=O)NCCCCCCS(C)=O (stereo unspecified),10.2,0.0,0.1%,-0.4,4.4,5.7
CNC(=O)CN(c1ccc(F)cc1)S(=O)(=O)c1cc(C)ccc1OC,1.7,1.2,7.4%[38.3 µM],0.1,0.0,-2.3
CSc1nnc(-c2cc(Br)ccc2N=Cc2c(C)[nH]n(-c3ccccc3)c2=O)c(=O)[nH]1,?,?,-0.5%,2.2,7.7,1.4
CCOc1cc(N2CCOCC2)c(OCC)cc1NC(=O)c1ccc(S(C)(=O)=O)cc1,11.1,0.0,2.3%,0.0,-6.1,0.6
Cc1ccc(C(=O)Nc2nnc(CC(=O)N/N=C/c3ccncc3)s2)cc1,-15.9,.,1.8%,0.2,-3.9,-3.1
CSCCC(NC(=O)COc1ccccc1)C(=O)N(C)CC(=O)Nc1c(C)cccc1C (stereo unspecified),-1.4,7.7,1.4%,0.0,3.7,-2.1
Cc1cccc(CN2C(=O)c3ccccc3S(=O)(=O)c3ccc(C(=O)OCC4CCCO4)cc32)c1 (stereo unspecified),.,.,1.6%,3.6,6.8,.
O=C(CN1C(=O)C2CC=CCC2C1=O)OCCN1C(=O)c2ccccc2C1=O (stereo unspecified),11.0,-0.5,0.6%,1.0,-10.7,-1.6
Cc1ccc(OC[C@H](O)[C@H](C)NC(C)C)c2c1CCC2,0.4,-2.3,0.1%,1.1,9.6,-1.4
O=CN1CCC(=O)N(Cc2ccccc2)c2ccccc21,2.1,9.8,33.6%[38.3 µM],-0.3,3.6,-2.9
